HCMV UL50-53 inh = disrupts HCMV UL50-UL53 complex binding | HTRF UL50-UL53 interaction, normalized percent inhibition | inhibition, % (test concentration not listed) | hit rate 0.15% among 190,000;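 active = both replicates at 50% or more, plus weaker picks with an unusually low signal ratio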;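 note: stock transfer was 100 nL into about 20 µL; 0% = negative control wells and 100% = wells with untagged competitor protein; inactives centre near -12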
Sa growth 42C = S. aureus growth inhibition | hit rate 0.53% among 170,000 | S. aureus RN4220 growth, OD600, 20 h, 42 °C; active compounds read low | AID 720641 | relative growth, % (no concentration beside the values);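 active = growth at 42 °C up to 50% and 20 or more points under that at 30 °C, or under 10% at both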;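 note: 300 nL library stock went into each well; scaled to the means of positive and negative controls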
GIV-Gai inh = GIV-Galpha-i interaction inhibition | percent of control (FP), % (concentration not given with the values) | Galpha-i3/FITC-GIV peptide fluorescence polarization, 90 min; active compounds read low; scaled: aluminum fluoride 0%, vehicle 100% | hit rate 0.42% among 210,000 | AID 1224905 | P08753;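 active = replicate mean at 85% of control or lower, very high polarization wells dropped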;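 note: wells of about 15 µL received 100 nL stock; the first replicate is given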
Target sequence (P08753 whole entry, looked up): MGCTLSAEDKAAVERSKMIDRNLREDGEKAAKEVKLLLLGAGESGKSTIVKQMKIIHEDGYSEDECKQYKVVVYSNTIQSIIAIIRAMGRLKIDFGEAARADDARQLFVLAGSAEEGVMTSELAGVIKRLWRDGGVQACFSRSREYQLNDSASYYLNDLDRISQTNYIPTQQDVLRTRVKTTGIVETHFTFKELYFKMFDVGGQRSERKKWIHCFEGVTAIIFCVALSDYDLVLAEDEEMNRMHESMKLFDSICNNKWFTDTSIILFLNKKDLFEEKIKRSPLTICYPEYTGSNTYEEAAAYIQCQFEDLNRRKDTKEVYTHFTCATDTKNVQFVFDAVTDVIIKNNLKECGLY
Sa growth 42C second temp = also measured in Sa growth 42C; calls as there; relative growth, %; measured here: growth at 30 °C;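 optical density after 20 h as mean of two plates; 100% = untreated growth and lower means inhibition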
Starred values were filed as active, the others as inactive; · = no result given; & = joins results of further samples.

Each structure is followed by: HCMV UL50-53 inh, Sa growth 42C, Sa growth 42C second temp, GIV-Gai inh
Cc1nc(-c2cc(C#N)c(SCCNS(=O)(=O)c3ccc(C(C)(C)C)cc3)nc2C)cs1
→ -8, 85, 76, 138
Cc1ccc(S(=O)(=O)N(C)CCCc2nc3ccccc3[nH]2)cc1
→ -1, 75, 92, 108
CC(C)c1ccccc1NC(=O)COC(=O)c1ccc(N(C)C)cc1
→ 9, 97, 101, ·
COc1ccccc1-c1c(C)nn2c(SCC(=O)NCc3cccc(Cl)c3)cc(C)nc12
→ 1, ·, ·, 97
COc1ccc(CCN(Cc2cc3cc4c(cc3[nH]c2=O)OCO4)C(=O)c2ccncc2)cc1OC
→ -14, 89, 79, 101
CN(CC(=O)Nc1ccc(OC(F)(F)F)cc1)S(=O)(=O)c1ccc2c(c1)CCC(=O)N2
→ 10, 102, 93, 101
O=C(NC1CCCC1)C1CCC(CNS(=O)(=O)c2ccccc2)CC1 (stereo not given)
→ 1, 95, 99, 108
COc1ccc2nc(C)c(C(=O)O)cc2c1
→ -19, 81, 85, 98
Cc1ccc(Sc2ncccc2C(=O)Nc2ccnn2C2CCN(C)CC2)cc1
→ -11, 89, 99, ·
CCN1CCN(CCCNC(=O)CN2C(=O)CCCc3ccccc32)CC1
→ 2, ·, ·, 110
CSc1ncc(C(=O)NC(C)c2ccccn2)n1-c1ccc(F)cc1 (stereo not given)
→ -5, 97, 95, ·
Cc1ccccc1CNC(=O)C1CCCN(S(=O)(=O)N(C)c2ccc(F)cc2)C1 (stereo not given)
→ ·, 125, 99, 106
CS(=O)(=O)Nc1nc2ccc(NC(=O)c3cc(-c4ccccc4)nc4ccccc34)cc2s1
→ 1, ·, ·, 107
COc1ccc(C2CC(c3ccccc3)=NN2C(=O)Cn2nnc3ccccc32)cc1 (stereo not given)
→ -10, 91, 89, ·
Cc1ccc(Cl)cc1N1CCN(C(=O)c2cnc3c(-c4ccc(F)cc4)c(C)nn3c2C)CC1
→ ·, 94, 89, 102
Cc1ccc(S(=O)(=O)c2nnn(CC(=O)Nc3ccccc3C)c2N)cc1
→ -37, 111, 92, 104
O=C(O)c1cc(Nc2ccc(F)cc2)c2cccc(Cl)c2n1
→ -75, ·, ·, 105
CCCC(=O)C1CCOC(C)(CC)C1 (stereo not given)
→ 74, 75, 92, 101
Cc1cccc(NC(=O)CSc2nsc(SCC(=O)Nc3cccc(C)c3)n2)c1
→ 6, 93, 96, 108
COc1cccc(OC)c1CNC(=O)c1cnccc1C(F)(F)F
→ -2, 111, 91, 102
Cc1ccc(CN2C(=O)C(C)(C)Oc3ccc(C(=O)NC4CC4)cc32)cc1
→ 8, 70, 107, 101
Cc1cc(NC(=O)c2ccc(S(=O)(=O)N3CCc4ccccc43)cc2)no1
→ -11, 104, 84, 109
Cc1ccc(Nc2c(-c3ccc(N4CCOCC4)cc3)nc3ncccn23)c(C)c1
→ -36, 112, 72, 110
CC(C)(C)c1nnc2sc(SCC(=O)Nc3ccc(Br)cc3)nn2c1=O
→ 3, 107, 82, 106
O=C(NC1(C(F)(F)F)Oc2ccccc2O1)N1CCCC1
→ -4, 102, 93, ·
CC(=O)Nc1ccc(S(=O)(=O)Nc2cc(-c3cn4ccccc4n3)ccc2C)cc1
→ -26, 99, 71, 99
Cn1cccc1Cc1nnc(SCC(=O)NO)n1-c1ccc(OC(F)(F)F)cc1
→ -36, 86, 88, 104
CC1(C)Oc2ccc3ccc(=O)oc3c2C(N2CCCCC2)C1O (stereo not given)
→ -12, 97, 88, 108
CCc1ccccc1N(C)S(=O)(=O)c1c(C)noc1/C=C/N1CCOCC1
→ ·, 77, 79, 108
CCOc1ccccc1NC(=O)N1CCc2cc(S(=O)(=O)N3CCC(C)CC3)ccc21
→ -11&-24, 116, 93, 102&104
CNC(=O)c1cc(Br)cc(S(=O)(=O)N2CCC(C)CC2)c1
→ 2, 118, 94, ·
CCC(=O)OCC(=O)Nc1ccc(Br)cc1Br
→ -37, 99, 88, ·
C=CCNc1nc(C(=O)OCC(=O)Nc2scc(-c3cccs3)c2C(=O)OCC)cs1
→ 4, 93, 94, ·
Nc1ccccc1C(=O)N1CCCCCC1
→ 7, 114, 105, ·
O=C(Oc1c(Cl)cc(Cl)c2cccnc12)N1CCCCCC1
→ -5, 111, 101, 101
O=C(Nc1scc(-c2cccs2)c1C(=O)O)c1cccs1
→ -38, 90, 19, ·
CCCNC(=O)c1cccc(C)c1
→ -20, 98, 101, 98
CC(C)CC(=O)Nc1nc2nc(-c3ccccc3)cc(=O)n2[nH]1
→ 2, 75, 92, 97
Cc1cccc(OCCOc2ccc(Cl)cc2C=C2C(=O)NC(=S)NC2=O)c1
→ -4, ·, ·, 109
O=S(=O)(c1ccc(-c2nnc(C3CC3)o2)s1)N1CCC2(CC1)OCCO2
→ -59, ·, ·, 108
Cc1cc(C(=O)OCC(=O)N2CCc3ccccc32)c(C)o1
→ -21, 97, 85, ·
N#CC(C#N)=CNCC(c1ccc(F)cc1)N1CCOCC1 (stereo not given)
→ 8, 92, 93, ·
Cc1noc(C)c1-n1sc(=O)n(CC2CC2)c1=O
→ -17, 80, 63, 102
COc1cc(OC)cc(N2C(=O)c3cc4ccsc4n3CC2(C)C(=O)NC2CCCCC2)c1 (stereo not given)
→ -27, ·, ·, 106
Cn1c(SCC(=O)N2CCc3ccccc32)nc2c(c1=O)SCC2
→ 8, 98, 100, 104
CC(C)COc1ccc(C(=O)N(C)Cc2ccccc2)cc1
→ -31, 70, 45, 102
CC(C)CCn1c(=O)c2sccc2n2c(CCCC(=O)N3CCCC3)nnc12
→ ·, 76, 89, 101
CCn1cnc(S(=O)(=O)N2CCC(C(=O)N3CCc4ccccc4C3)CC2)c1
→ -13, ·, ·, 107
COc1cc(CN2CCN(C(=O)c3cccc4ccccc34)CC2)cc(OC)c1OC
→ -20, 128, 89, 101
S=c1[nH]nc(-c2c(-c3ccccc3)c(-c3ccccc3)nn3nnnc23)o1
→ -176, 83, 62, 106
CC(C)CNC(=O)c1cccc(S(=O)(=O)N2CCCCC2)c1
→ -12, 82, 89, ·
O=C(c1cnc2ccccc2c1Nc1ccc(F)cc1F)N1CCOCC1
→ -26, ·, ·, 100
COc1cc(/C=C2\C(=O)N(c3ccc(Cl)c(C(=O)O)c3)N=C2C)ccc1OCc1ccccc1
→ 26, ·, ·, 109
O=C(O)COc1ccc(N=Cc2nc(-c3ccc(Br)cc3)oc2O)cc1
→ -38, ·, ·, 106
CSc1ccncc1C(=O)Nc1ccc(F)cc1F
→ -8, 121, 77, 96
Cc1ccc2snc(C(=O)N3CCN(S(=O)(=O)c4cnn(C(F)F)c4C)CC3)c2c1
→ 12, ·, ·, 101
CC(C)(C)NC(=O)CSc1nnc([C@H](Cc2ccccc2)NC(=O)OC(C)(C)C)o1
→ 10, 96, 97, 110
COc1ccc(CCCc2nnc(SCC(=O)Nc3ccccc3F)o2)cc1C
→ -13, 111, 95, 103
CC(C)(C)NC(=O)Cn1nc(Cl)nc1Cl
→ -10, 99, 93, 105
COc1ccc(N=CC2=C(O)CC(c3cccs3)CC2=O)cc1 (stereo not given)
→ -11, 100, 83, 98

Additional structures follow:
Each structure is followed by: HCMV UL50-53 inh, Sa growth 42C, Sa growth 42C second temp, GIV-Gai inh
Cc1ccc2cc(-c3noc(C4CCCO4)n3)c(=O)[nH]c2c1 (stereo not given)
→ -12, 82, 88, 100
CC(C)(C)C(=O)N1CCN(S(=O)(=O)c2ccccc2)CC1
→ -22, 65, 86, ·
Cn1c(N)c(C(=O)COC(=O)C2CCN(C3=NS(=O)(=O)c4ccccc43)CC2)c(=O)n(C)c1=O
→ -19, 72, 97, ·
Cc1c(C(N)=O)cnn1-c1ccc(Cl)cc1
→ 4, 74, 92, 99
Cc1ccc2nc(NC(=O)C3CCCN(S(=O)(=O)c4ccc(Br)s4)C3)sc2c1 (stereo not given)
→ -39, 90, 101, 109
COc1ccc(NC(=O)Nc2ccccn2)cc1
→ ·, 94, 82, 103
Cc1nc(-c2ccccc2)sc1C(=O)Nc1nnc(C2CCCO2)s1 (stereo not given)
→ -57, ·, ·, 97
CCOc1ccc(CCNC(=O)Cn2nc(C)n3c(cc4occc43)c2=O)cc1OCC
→ -18, 100, 89, 99
CCC(=O)Nc1ccccc1-c1nc2ccccc2n(Cc2cccc(Br)c2)c1=O
→ -9, 93, 90, 95
CCC(N)c1ccc(C)cc1 (stereo not given)
→ -30, 106, 88, ·
COc1ccc(-c2cn3c(n2)sc2cc(C(=O)NCc4ccccc4)ccc23)cc1
→ ·, 110, 82, 108
O=C(Nc1ccccc1)C1CC(=O)N(CCc2c[nH]c3ccc(F)cc23)C1 (stereo not given)
→ -12, ·, ·, 103
CCCN1CNC(=S)N(c2ccccc2OC)C1
→ -28, 95, 83, 99
O=c1[nH]c(=S)[nH]c(O)c1C=Nc1cccc(O)c1
→ ·, 119, 87, 106
O=C(CSc1nc2ccccc2c(=O)n1CCc1ccccc1)NCc1ccccc1
→ 8, 94, 78, 102
NS(=O)(=O)c1ccc(CCNC(=O)c2oc(=O)c3ccccc3c2-c2ccccc2)cc1
→ ·, 112, 63, 103
O=C(c1ccc(Cn2c(=O)c(=O)n(Cc3ccccc3F)c3cccnc32)cc1)N1CCOCC1
→ -1, ·, ·, 95
Cc1ccc(-c2c(C(=O)N(C)Cc3ccccc3)oc(=O)c3ccccc23)cc1
→ 9, 99, 88, 106
CCC(C)NC(=O)c1cc2c(Cl)nc3ccc(C)cc3c2s1 (stereo not given)
→ -17, 99, 92, 106
CN1Cc2sccc2C(c2ccc(O)c(O)c2)C1 (stereo not given)
→ -11, ·, ·, 103
O=C(CSc1nc(O)cc(=O)[nH]1)c1ccc(O)cc1O
→ -43, 111, 90, 99
Cc1cc(Cl)nc2ccc(Cl)cc12
→ -10, 99, 81, 92
COc1ccc(NC(=O)CSc2nc3ccccc3n2CC(=O)N2CCCCC2C)cc1 (stereo not given)
→ ·, 92, 85, 103
O=C1c2ccccc2C(=O)C1c1ccc(O)cc1
→ -26, 105, 86, 102
S=c1[nH]nc(-c2cc(-c3ccccc3)n[nH]2)n1C1CC2C=CC1C2 (stereo not given)
→ -19, 91, 72, 99
CC1(C(=O)c2ccccc2)C2c3cc(Br)ccc3OC(=O)C21C(=O)NCc1ccccc1 (stereo not given)
→ -12, 103, 96, 101
O=S(=O)(c1ccc(-n2cccn2)cc1)N(Cc1ccccn1)Cc1ccccn1
→ -24, 95, 82, 104
N#Cc1cc(Cl)c2c(c1)OCCCO2
→ 5, 86, 64, ·
Cc1nc(CCNC(=O)c2ccccc2C)cs1
→ 8, ·, ·, 105
Cc1ccc(NC(=O)CSc2nc3c(c(=O)[nH]2)CN(Cc2ccccc2)CC3)cc1Cl
→ -16, 125, 101, 102
CC(C)c1ccc(-n2nnc3ccccc3c2=O)cc1
→ -31, 101, 96, 102
N/C(=N/O)c1nn(-c2ccccc2)nc1N1CCCCC1
→ -8, 102, 82, 99
CCCCC(=O)Nc1ccc2c(c1)nc(Cn1ccnc1C)n2CCC
→ -5, ·, ·, 98
CC(C)N(c1nnc(N)s1)C(C)C
→ -10, 95, 80, ·
COC(=O)c1ccc(OC(=O)c2ccccc2)cc1
→ 9, 100, 102, 105
COc1ccc(-c2noc(COC(=O)c3c4ccccc4cc4ccccc34)n2)c(OC)c1
→ -17, 73, 98, ·
COC(=O)c1ncn2c1C(=O)N(c1ccc3c(c1)OCCO3)C(C)(C(=O)NC1CCCCC1)C2 (stereo not given)
→ -9, ·, ·, 106
CCSc1ccsc1C1C(C#N)=C(N)N(c2cccnc2)C2=C1C(=O)CC(C)(C)C2 (stereo not given)
→ ·, 95, 83, 106
Cc1cc(-c2noc(-c3cc(C)on3)n2)no1
→ -33, 112, 86, 99
Nc1ccc(C(=O)OCC(=O)Nc2ccc(Br)cc2Br)cc1
→ -38, 100, 88, ·

The closing five entries of the section above lead into the next:
Each structure is followed by: HCMV UL50-53 inh, Sa growth 42C, Sa growth 42C second temp, GIV-Gai inh
COc1ccc(-c2noc(COC(=O)c3c4ccccc4cc4ccccc34)n2)c(OC)c1
→ -17, 73, 98, ·
COC(=O)c1ncn2c1C(=O)N(c1ccc3c(c1)OCCO3)C(C)(C(=O)NC1CCCCC1)C2 (stereo not given)
→ -9, ·, ·, 106
CCSc1ccsc1C1C(C#N)=C(N)N(c2cccnc2)C2=C1C(=O)CC(C)(C)C2 (stereo not given)
→ ·, 95, 83, 106
Cc1cc(-c2noc(-c3cc(C)on3)n2)no1
→ -33, 112, 86, 99
Nc1ccc(C(=O)OCC(=O)Nc2ccc(Br)cc2Br)cc1
→ -38, 100, 88, ·
COc1cc(C2C(C(=O)Nc3ccc(Br)cn3)=C(C)NC3=C2C(=O)CCC3)cc(OC)c1OC (stereo not given)
→ -22, ·, ·, 102
COc1ccc(OC)c(C2N=C(N)Nc3nc4ccccc4n32)c1 (stereo not given)
→ -7, 101, 97, 101
O=C(O)C1CCN(c2ncnc3nc[nH]c23)CC1
→ -18, ·, ·, 97
CN(Cc1ccccc1)C(=O)CCc1nc(CN2CCN(S(=O)(=O)c3ccc(Br)cc3)CC2)no1
→ -6, ·, ·, 103
COC(=O)C1(CO)NC(c2ccc(Cl)cc2)C2C(=O)N(C)C(=O)C21 (stereo not given)
→ -1, 116, 88, 109
CC1(CO)CSC(Nc2ccc(Cl)c(Cl)c2)=N1 (stereo not given)
→ 7, 115, 92, 98
CCCCc1nnc(NC(=O)C2CC(=O)N(CCc3c[nH]c4ccc(C)cc34)C2)s1 (stereo not given)
→ -13, ·, ·, 103
CCOC(=O)c1sc(C#N)c2c1CC(C)(C)CC2=O
→ -16, 100, 87, 100
